Vif TR-FRET: inhibitors of Vif binding to APOBEC3G peptide, primary screen, biochemical, TR-FRET, GST-Vif 1-94, biotin-A3G peptide, dose response retest (AID 1117319). actives 0.57% (n = 260,000). inhibition, %, or IC50 in µM where a hit was titrated. TR-FRET GST-Vif / biotin-A3G peptide binding; higher % means a stronger effect; test concentration not given here; strong numbers were not always called active;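 active = above the screen mean plus three standard deviations and confirmed in dose response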;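 also: Vif residues 1-94 fused to GST binding biotinylated APOBEC3G peptide 110-148; 0% = full assay without inhibitor and 100% = GST in place of GST-Vif; retest series ran down from 100 µM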
HNF4A DNA FP: change in binding of human HNF4 alpha to DNA | P41235 | actives 0.3% (n = 360,000) | HNF4a-FITC DNA binding, fluorescence polarization, 1 h | activity change, % at 10 µM | AID 1224865; in the data active = activity change above about 30%, passing the limit was not always enough;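 also: controls were the assay level and a saturating level of protein; the project sought stronger binding though the title names inhibitors; some compounds called inactive have numbers as strong as hits; positive values seem to mean higher polarization but the record does not say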
B2AR ag: human beta-2 adrenergic receptor agonism by FAP | Am2.2-beta2AR cells, FAP receptor internalization, flow cytometry; reference of the scale not given here | AID 504454 | response, % (no concentration beside the values) | P07550 | actives 0.43% (n = 340,000);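 active = response above a set limit, near 3 SD of response in nonfluorescent compounds, cut at about 42% in these data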;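 also: stock transfer was 100 nL into about 11 µL; a reference agonist was the positive control; negative values mostly stem from fluorescent compounds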
Target sequence (P07550 whole entry, looked up): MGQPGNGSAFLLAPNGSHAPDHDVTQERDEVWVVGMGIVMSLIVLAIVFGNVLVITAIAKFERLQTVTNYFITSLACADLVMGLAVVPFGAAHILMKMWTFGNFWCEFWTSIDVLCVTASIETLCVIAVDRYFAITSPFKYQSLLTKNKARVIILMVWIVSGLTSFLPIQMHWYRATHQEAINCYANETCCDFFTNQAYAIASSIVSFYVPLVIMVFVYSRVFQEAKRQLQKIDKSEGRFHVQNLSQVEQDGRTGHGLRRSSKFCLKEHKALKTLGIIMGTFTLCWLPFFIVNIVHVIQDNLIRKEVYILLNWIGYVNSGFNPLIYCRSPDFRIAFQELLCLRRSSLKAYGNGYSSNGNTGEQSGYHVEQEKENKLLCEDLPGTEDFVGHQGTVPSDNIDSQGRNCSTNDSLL
A1 inh: inhibitors of the anti-apoptotic protein A1, read as caspase activation | MEF A1-2A-BIM cells, Caspase-Glo 3/7 luminescence, 3 h; percent of clofoctol response, vehicle zero | caspase activation, % (no concentration beside the values) | actives 0.066% (n = 330,000) | AID 2462;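 active = over half of replicate activation scores above 10%, or exactly half above 10 with the replicate mean above 10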;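 also: wells of about 30 µL received 50 nL stock; many hits fall short of the cut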
UCH37 DUB inh: human UCH37 deubiquitinating enzyme inhibition; purified proteasome/UCH37, Ub-AMC cleavage fluorescence; inhibition, % (no concentration beside the values); actives 0.33% (n = 330,000);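 active = mean of two replicates above 20%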;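 also: 0% = compound-free wells with enzyme and 100% = wells lacking proteasome; stock transfer was 100 nL into about 20 µL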
Target sequence (Q9Y5K5 whole entry, looked up): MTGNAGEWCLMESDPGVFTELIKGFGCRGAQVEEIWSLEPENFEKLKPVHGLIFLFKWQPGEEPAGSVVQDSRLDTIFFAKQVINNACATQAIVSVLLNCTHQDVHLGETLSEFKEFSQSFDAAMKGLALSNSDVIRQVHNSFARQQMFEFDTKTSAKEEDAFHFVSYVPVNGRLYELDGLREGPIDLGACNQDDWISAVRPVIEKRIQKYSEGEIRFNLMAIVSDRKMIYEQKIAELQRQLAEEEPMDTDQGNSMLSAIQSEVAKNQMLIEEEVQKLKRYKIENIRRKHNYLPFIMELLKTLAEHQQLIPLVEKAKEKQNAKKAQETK
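Material: Human UCH37 enzyme supplied as purified proteasome complex | Schedule: 30 min preincubation with enzyme, 25 min cleavage at room temperature | Detection: AMC fluorescence 355/460 nm | Measure: % inhibition of Ub-AMC cleavage fluorescence | Controls: Wells without proteasome as full block, compound-free enzyme plus substrate as uninhibited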
LANA-H2B inh: blocks KSHV LANA binding to histone H2A/H2B; actives 0.6% (n = 320,000); inhibition, % (concentration not given with the values); AID 2629; cell-free LANA-H2A/H2B peptide, fluorescence polarization; Q9QR71; in the data active = inhibition mostly above about 10%, no sharp cut-off; inactive = mostly below about 6.7%;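 also: stock transfer was 7.5 nL into about 10 µL; 0% = median of vehicle wells and 100% = median of positive control wells; one replicate is shown; the record names a cut of 25% in any replicate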
Ecoli growth: blocks Escherichia coli growth. OD600, 23 h; hits give low values. OD600 absorbance (no concentration beside the values). AID 1053175. actives 0.21% (n = 330,000);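 active = OD600 absorbance below the run mean of sample wells minus 3.6 SD, in any replicate, cut at about 0.56 in these data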;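 also: stock transfer was 300 nL into about 60 µL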
Numbers without * were called inactive; . = no result given; & = joins results of further samples.

Order of values – LANA-H2B inh, Vif TR-FRET, B2AR ag, UCH37 DUB inh, HNF4A DNA FP, Ecoli growth, A1 inh
> COc1ccc(Oc2ncnc3sccc23)cc1
  -4.2, -4.2%, -0.5, 3.8, -0.3, 0.694, -1.2
> Cc1ccc(CNC(=O)C2CCC(=O)N(C3CCCC3)C2)c(F)c1F (stereo not given)
  -7.4, ., -9.6, -0.2, -2.4, 0.724, -1.0
> Cc1ccc(S(=O)(=O)N(C)C)cc1NC(=O)Nc1ccccc1
  7.1, -9.4%, -6.6, 7.0, 1.7, 0.678, 0.1
> CCOC(=O)c1c(-c2cccs2)csc1NC(=O)c1ccco1
  4.1, -0.2%, 3.9, -63.6, 1.1, 0.695, -1.2
> COc1cc(C)ccc1OCCOCCOc1c(C)cc(C)cc1Br
  -2.8, -0.4%, -5.5, 1.9, 2.1, 0.758, -0.5
> CCOc1ccc(NC(=O)N2CCC(C(N)=O)(N3CCCCC3)CC2)cc1
  0.5, 5.6%, -2.3, -0.1, -1.0, 0.654, -0.2
> CCCC1=Nc2cc(C(=O)NCCCOC(C)C)ccc2Sc2ccccc21
  -3.5, 1.1%, 23.1, 0.8, -2.7, 0.724, 0.2
> COc1ccccc1N1CCN(C(=O)CN(C2CCCCC2)S(C)(=O)=O)CC1
  -2.7, 7.4%, 0.9, 2.9, 3.7, 0.701, 0.8
> Cc1ccc(S(=O)(=O)N2CCN(CN3C(=O)CC4(CCCC4)C3=O)CC2)cc1
  ., 3.9%, -1.3, 3.1, 0.4, 0.674, .
> CCS(=O)(=O)N1Cc2ccccc2CC1C(=O)NCc1cccc(OC)c1 (stereo not given)
  0.5, ., -1.1, 1.8, 4.8, 0.703, -0.8

Arranged by SMILES length (largest number first): five of the compounds above.
Order of values – LANA-H2B inh, Vif TR-FRET, B2AR ag, UCH37 DUB inh, HNF4A DNA FP, Ecoli growth, A1 inh
> CCOc1ccc(NC(=O)N2CCC(C(N)=O)(N3CCCCC3)CC2)cc1
  0.5, 5.6%, -2.3, -0.1, -1.0, 0.654, -0.2
> CCS(=O)(=O)N1Cc2ccccc2CC1C(=O)NCc1cccc(OC)c1 (stereo not given)
  0.5, ., -1.1, 1.8, 4.8, 0.703, -0.8
> CCCC1=Nc2cc(C(=O)NCCCOC(C)C)ccc2Sc2ccccc21
  -3.5, 1.1%, 23.1, 0.8, -2.7, 0.724, 0.2
> COc1cc(C)ccc1OCCOCCOc1c(C)cc(C)cc1Br
  -2.8, -0.4%, -5.5, 1.9, 2.1, 0.758, -0.5
> COc1ccc(Oc2ncnc3sccc23)cc1
  -4.2, -4.2%, -0.5, 3.8, -0.3, 0.694, -1.2

The listing continues.
Order of values – LANA-H2B inh, Vif TR-FRET, B2AR ag, UCH37 DUB inh, HNF4A DNA FP, Ecoli growth, A1 inh
> COc1ccc(OC)c(C2NC(=O)c3sc(=S)n(-c4ccccc4)c3N2)c1 (stereo not given)
  3.4, 1.7%, -0.4, 4.1, 4.4, 0.696, -0.3
> Cc1nn(-c2ccccc2)c(C)c1/C=N/O
  0.5, -4.2%, 2.5, ., 0.0, ., -0.1
> N#Cc1ccc(Sc2ccccn2)c([N+](=O)[O-])c1
  3.0, 12.4%, -1.8, 5.9, -0.3, 0.649, -0.3
> COc1cc(OC)cc(C(=O)NC2CCCN(Cc3ccc(Cl)cc3)C2)c1 (stereo not given)
  -6.2, 9.8%, 1.6, 3.2, 0.4, 0.662, 0.7
> Cc1c(NC(=O)C2Cc3ccccc3CN2C(=O)c2ccco2)c(=O)n(-c2ccccc2)n1C (stereo not given)
  -6.4, 6.1%, -3.0, 5.4, 1.5, 0.685, -0.8
> CCN(CCNC(=O)c1ccc2nc(-c3ccccc3NC(C)=O)c(=O)[nH]c2c1)c1ccccc1
  0.1, -0.6%, -0.7, 4.6, -5.5, 0.726, 1.0
> NS(=O)(=O)c1ccc(NC(=S)Nc2ccn(Cc3cccc4ccccc34)n2)cc1
  0.3, 0.8%, 0.7, 0.9, -3.1, 0.688, 0.0
> Cc1cc(C)nc(SCC(=O)Nc2ccc(S(=O)(=O)N3CCCCC3)cc2)n1
  0.2, -3.8%, -7.0, 0.7, -0.1, 0.642, -0.7
> COC(=O)CCCCNC(=O)Nc1ccccc1
  0.4, -15.0%, 12.1, 0.0, -3.7, 0.709, -0.4
> O=C(NCCC1=CCCCC1)C1CCCN(S(=O)(=O)c2cccc3cccnc23)C1 (stereo not given)
  -5.6, 1.8%, -2.3, 5.4, 0.4, 0.748, -0.5
> CCc1ccc(-c2ccc(C(=O)O)cc2)nc1
  4.7, 1.8%, 8.4, 0.7, 1.6, 0.711, -7.3
> Cc1cn([C@@H](CCCCNC(=O)OC(C)(C)C)C(=O)NCCCCCCCCCCC(=O)N2CCN(C(=O)OC(C)(C)C)CC2)nn1
  0.1, ., 20.6, 1.1, -4.9, ., -0.2
> Cc1onc(-c2ccccc2)c1C(=O)OCC(=O)N1CCN(c2ccccc2)CC1
  -3.5, -9.9%, -4.0, 2.4, -1.7, 0.665, 0.1
> CC(C)N(Cc1nccn1C)C(=O)c1ccc(OC2CCN(C(=O)C3CC3)CC2)cc1
  -4.8, -5.3%, -0.3, 2.1, 2.7, 0.681, 0.7
> CC(=O)Nc1ccc(/C(C)=N/Nc2nc(Nc3ccccc3)nc(N3CCOCC3)n2)cc1
  0.5, 1.7%, 2.3, ., 0.0, ., 3.8
> Nc1nonc1-c1noc(-c2ccccc2)n1
  -0.4, 24.0%, 10.4, 3.7, -0.2, 0.636, 0.1
> COc1cccc(-c2nc(C(=O)NCCCN3CCOCC3)cc3c2[nH]c2ccccc23)c1
  6.1, ., 4.5, -37.4, -1.9, 0.686, -0.2
> S=C1NCN(Cc2ccco2)CN1c1ccccc1
  2.2, ., -1.3, 3.2, 3.1, 0.674, 0.3
> Cc1cc(NC(=O)CSc2nc3ccccc3s2)no1
  -0.9, -7.4%, -4.1, -3.4, 1.4, 0.752, -0.1
> COc1cccc(NC(=O)c2ccccc2F)c1
  2.6, ., 2.7, 4.8, 3.6, 0.615, -9.1
> COc1ccc(-c2noc(CCC(=O)NCCN3CCN(c4ccccc4F)CC3)n2)cc1
  5.5, -0.2%&-4.0%, -11.8, 4.5, 4.7, 0.782, 2.0
> COc1cnn(-c2ccccc2)c(=O)c1OC
  3.4, -11.5%, 2.7, 3.9, 1.1, 0.695, -0.8
> COc1ccc(NC(=O)CSc2nc3ncccc3[nH]2)cc1OC
  -0.6, -1.4%, -3.2, 5.6, 0.2, 0.703, 0.7
> O=C(CSc1ccc2nnc(-c3ccccn3)n2n1)Nc1ccccc1C(F)(F)F
  -26.7, -1.1%, -2.7, -17.6, 0.5, 0.701, 0.3
> COc1ccc(OC)c(/C=C2\Oc3cc(OCC(=O)N4CCC[C@H]4C(=O)O)ccc3C2=O)c1
  0.3, ., -2.9, 14.8, 1.4, 0.656, -0.7
> Cc1nn(CC(=O)Nc2c(C)n(C)n(-c3ccccc3)c2=O)c(C)c1[N+](=O)[O-]
  0.8, ., -4.4, 1.1, 0.8, 0.67, -1.0
> CCOc1ncccc1C(=O)OCC(=O)Nc1ccc2c(c1)OCCO2
  ., ., 6.7, 0.2, 3.9, 0.688, .
> Cc1nc2ccc(NC(=O)CSc3ccccc3)cc2s1
  -1.3, ., 4.2, 0.4, 3.7, 0.626, -4.2
> O=C(NC(=S)Nc1ccccc1Cl)c1cnn2c(C(F)(F)F)cc(C(F)(F)F)nc12
  3.2, -2.5%, 0.5, 5.7, -1.3, 0.634, 0.2
> O=S(=O)(Nc1ccc2c(c1)OCCO2)c1cccs1
  4.8, 5.5%, 3.6, 5.2, -1.7, 0.657, 0.5
> CC(=O)Oc1cc2c(C(=O)NCc3ccncc3)c(C)oc2c2ccccc12
  -3.3, ., 6.4, 5.5, 2.5, 0.762, 0.0
> O=C(Oc1ccc(-c2csnn2)cc1)c1cccs1
  -7.1, ., 2.3, 4.9, 0.7, 0.677, -0.4
> O=C(Nc1cc([N+](=O)[O-])ccc1O)c1cccc(NC(=O)c2ccco2)c1
  -6.8, ., 6.8, 4.5, -1.0, 0.701, 0.4
> COC(=O)[C@@]12CCCN1[C@H](c1ccc(-c3cccc(Cl)c3)c(OC)c1)[C@H]1C(=O)N(C)C(=O)[C@H]12
  1.3, ., 6.0, 2.9, 0.6, ., 1.5
> O=P(CCc1ccccc1)(c1ccccc1)c1ccccc1
  ., -5.1%, -2.4, -2.4, 0.8, 0.657, .
> O=C(C1CCN(c2ncnc3c2sc2cccc(F)c23)CC1)N1CCOCC1
  0.9, 22.3%, 1.7, -15.6, 4.4, 0.757, 0.3
> CC(CCc1ccccc1)NC(=O)C(=O)NCCc1ccccc1 (stereo not given)
  2.6, ., -159.7, 2.7, 4.1, 0.734, -0.3
> O=C(c1cc(Cl)c(=O)n(Cc2ccccc2)c1)N1CCOCC1
  1.4, -0.7%, 5.5, 0.4, -0.4, 0.719, 0.9
> Cc1cc(C)c(S(=O)(=O)N2CC=C(c3ccccc3)CC2)c(C)c1
  -1.8, -6.0%, 6.4, 0.1, 0.2, 0.699, -0.2
> CC(C)n1c(=O)[nH]c2cc(C(=O)Nc3ccccc3)ccc21
  0.6, 8.8%, 2.4, 1.9, 4.5, 0.66, 0.8
> O=C(Nc1cccc(F)c1)c1ccc(S(=O)(=O)N2CCOCC2)cc1
  0.2, 21.3%, -4.9, 4.6, 2.2, 0.681, 0.1
> O=C(Cn1ncc2c3ccccc3n(Cc3ccc(Cl)cc3)c2c1=O)NCCCN1CCCC1=O
  3.1, ., -4.3, -16.0, 8.3, 0.64, -0.1
> COc1ccccc1C(=O)NCCC(=O)NCC(c1ccco1)N1CCCC1 (stereo not given)
  0.5, 10.4%, -3.4, 0.0, 4.8, 0.628, 0.6
> CC(C)(C)NC(=O)NC(=O)CSc1nncs1
  -2.4, 6.7%, -4.0, -2.4, -1.9, 0.724, 0.9
> COc1cc(NC(=O)c2ccc3c(SCC(=O)O)c4c(nc3c2)CCC4)cc(OC)c1OC
  9.7, 22.2%, 10.1, 6.2, -1.2, 0.605, 0.4
> COc1cc(C(=O)Nc2sc(C)c(C)c2C(=O)O)cc(OC)c1OC
  -5.9, 1.7%, 11.8, 7.5, 2.6, 0.688, 0.2
> O=C(Nc1nc2ccccc2n1Cc1ccccc1)c1ccco1
  2.0, -6.2%, -8.6, -0.4, -1.6, 0.774, 0.2
> O=C(Nc1ccc2c(c1)OCO2)C1CCN(C(=O)c2ccc(Cl)cc2)CC1
  -0.9, 8.6%, -10.0, -1.2, 0.0, 0.668, -0.4
> COc1cccc(/C=N/Nc2ccc(C(=O)O)cc2)c1O
  9.6, -6.4%, 3.4, ., 2.2, ., -13.4
> CC1(c2cccc(Br)c2)NC(=O)N(CC(=O)Nc2ccc3c(c2)OCCO3)C1=O (stereo not given)
  -1.1, ., -7.1, 7.1, -1.6, 0.711, 1.1

The results go on:
Order of values – LANA-H2B inh, Vif TR-FRET, B2AR ag, UCH37 DUB inh, HNF4A DNA FP, Ecoli growth, A1 inh
> CCCN(CC1CC1)C(=O)CSc1ncnc2sc(C)c(C)c12
  -0.1, -4.2%, -7.6, 1.7, 0.4, 0.715, 0.6
> CCN(CC)C(=O)CSc1nnc(-c2ccco2)n1Cc1ccco1
  2.9, 4.4%, 0.6, 0.5, -3.2, 0.65, -0.4
> CCOC(=O)c1ccc(NC(=O)NCc2ccncc2)cc1
  -2.1, -1.5%, 3.6, 3.3, 0.9, 0.712, -0.7
> O=C(NC(=S)Nc1ccc(N2CCOCC2)cc1)c1cccs1
  6.0, -5.0%, -1.5, 1.0, 2.6, 0.698, 0.5
